# Compound activity as filed in PubChem.
# VDR inhibitor = inhibitors of human vitamin D receptor; 400,000 compounds, 0.93% hits; P11473; AID 504847; VDR-SRC2-3 peptide fluorescence polarization, 2 h; Potency, µM, without a hit: max response, negative = inhibition, actives largely listed as inhibitors; active = well fitted inhibition curve with a large enough effect; inconclusive = small, poorly fitted or top-dose-only effect, or another doubt; inactive = no such curve, though single readings can be large or run the other way; note: series mostly up to about 120 µM
# Target sequence (P11473 whole entry, looked up): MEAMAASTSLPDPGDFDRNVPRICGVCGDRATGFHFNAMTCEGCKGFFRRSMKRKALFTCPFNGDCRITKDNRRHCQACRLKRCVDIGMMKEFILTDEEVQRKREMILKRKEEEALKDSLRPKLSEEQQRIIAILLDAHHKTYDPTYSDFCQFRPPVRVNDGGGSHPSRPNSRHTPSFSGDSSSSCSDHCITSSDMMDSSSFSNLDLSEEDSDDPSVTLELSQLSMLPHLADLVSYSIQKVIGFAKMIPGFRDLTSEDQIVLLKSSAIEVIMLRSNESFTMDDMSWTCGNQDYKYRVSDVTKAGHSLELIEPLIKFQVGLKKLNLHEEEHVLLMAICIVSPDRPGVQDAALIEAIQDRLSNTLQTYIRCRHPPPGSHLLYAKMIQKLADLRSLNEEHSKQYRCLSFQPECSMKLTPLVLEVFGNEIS
#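 The screen uses fluorescence polarization to detect compounds that interfere with recruitment of the SRC2-3 coactivator peptide to VDR; plates are read after 2 h at room temperature.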
# Starred values were filed as active, the others as inactive; ? = inconclusive; & = joins results of further samples. % is set by controls: 0 for no effect and ±100 for the full control effect; potency is the fitted concentration of half-maximal effect. This is a subset; the hit share may differ from the screen's.
compound	VDR inhibitor
CC1/C=C/C=C/C=C/C=C/C=C/C=C/C=C/C(OC2OC(C)C(O)C(N)C2O)CC2O[C@@](O)(CC(O)CC(O)C(O)CCC(O)CC(O)CC(=O)OC(C)[C@H](C)C1O)CC(O)C2C(=O)O (some centres not stated)	50.1µM*
CCOC(=O)c1ccccc1NC(=O)C=C(C)C	-1.7%
Cc1ccc(NC(=O)COC(=O)COc2ccc3ccc(=O)oc3c2)cc1[N+](=O)[O-]	-21.6%
CCNC(=O)NC1c2ccccc2CSc2ccccc21 (configuration not stated)	7.8%
O=C1CCCc2cc(S(=O)(=O)N3CCCC(C(=O)Nc4ccc(F)c(Cl)c4)C3)ccc2N1 (configuration not stated)	7.8%
O=C(CCCn1c(=S)[nH]c2ccccc2c1=O)N1CCOCC1	12.3%
CCOC(=O)C(=O)c1csc(NC(=O)COc2ccc(N(C)S(=O)(=O)c3ccc(F)cc3)cc2)n1	4.2%
CC(C)(O)C#Cc1ccc(CN2CCCC(CO)(Cc3cccc(Cl)c3)C2)cc1 (configuration not stated)	-4.0%
CCN(CC)C(=O)C1CCCN(C(=O)Nc2ccc3nsnc3c2)C1 (configuration not stated)	3.4%
CCCCSCCCNC(=O)C1CCC(CNS(=O)(=O)c2ccccc2)CC1 (configuration not stated)	9.6%&-3.2%
Cc1ccc(CN(Cc2ccco2)C(=O)COc2ccc(Cl)cc2)o1	-4.2%
COc1ccc(NC(=O)c2sc3nc4c(cc3c2N)CCCCCC4)c(OC)c1	-3.4%
Cc1cc(NC(=O)CSc2ccc(Cl)cc2)no1	?
CCc1cc(C(=O)N/N=C/c2c(C)[nH]c3ccccc23)cs1	-10.7%
Nc1n[nH]c(N)c1N=Nc1cccc(C(F)(F)F)c1	9.5%
COc1ccc2c(C(=O)c3ccc(C)cc3)n(CCCC(N)=O)[n+]([O-])c2c1	-14.5%
CCn1cc(Br)c(C(=O)Nc2nccs2)n1	-14.0%
CCc1nnc(NC(=O)CSc2nnc(Cc3ccccc3)n2-c2ccc(OC)cc2)s1	24.0%
O=C(CCc1ccccc1)NCCCNC(=O)CCc1ccccc1	14.5%
Cc1cccc(NC(=O)c2cnc3sccn3c2=O)c1	-17.7%

# Quoted at random: five records from the list.
compound	VDR inhibitor
CCNC(=O)NC1c2ccccc2CSc2ccccc21 (configuration not stated)	7.8%
CC(C)(O)C#Cc1ccc(CN2CCCC(CO)(Cc3cccc(Cl)c3)C2)cc1 (configuration not stated)	-4.0%
CCc1cc(C(=O)N/N=C/c2c(C)[nH]c3ccccc23)cs1	-10.7%
CCOC(=O)C(=O)c1csc(NC(=O)COc2ccc(N(C)S(=O)(=O)c3ccc(F)cc3)cc2)n1	4.2%
CCCCSCCCNC(=O)C1CCC(CNS(=O)(=O)c2ccccc2)CC1 (configuration not stated)	9.6%&-3.2%

# Next entries follow.
compound	VDR inhibitor
CCOC(=O)c1cc(=O)cc(C(=O)OCC)o1	6.2%
CC(NC(=O)CN1CCOCC1)c1ccc(F)cc1 (configuration not stated)	-7.5%
COc1ccc(-c2nc(CS(=O)CC(=O)NCCc3ccc(Cl)cc3)c(C)o2)cc1OC (configuration not stated)	-25.0%
CCCCCNC(=O)c1cccc(S(=O)(=O)N2CC3(C)CC2CC(C)(C)C3)c1 (configuration not stated)	-14.4%
CCOc1ccc(Nc2c(S(=O)(=O)c3ccccc3)cnc3ccccc23)cc1	-2.1%
COc1cccc(OC)c1OCCNCC1COc2ccccc2O1 (configuration not stated)	-3.5%&2.4%&0.2%
O=C(Cn1nnc(-c2ccc(Cl)cc2)n1)NCc1ccco1	-0.5%
Cc1ccc(C)c(NC(=O)CCc2nnc3ccc(N4CCCC4)nn23)c1	-21.9%
COc1ccc(NC(=O)CSc2c3c(nc4ccccc24)CCC3)c(OC)c1	4.0%&-16.8%
C=CCc1ccccc1OCCSc1nc(-c2ccccc2F)nc2cc(=O)[nH]n12	7.2%
Cc1cc(C)n(/N=C/c2cc(Cl)cc(Cl)c2O)c(=O)c1	-4.3%
Cc1ccc(C)c(N2N=C(C(=O)OCc3nnc(-c4cccs4)o3)CCC2=O)c1	1.2%
COc1ccc(N(CC(=O)N2CCN(Cc3ccc4c(c3)OCO4)CC2)S(=O)(=O)c2ccc(F)cc2)cc1	6.8%
COc1ccc2[nH]c(C(=O)O)c(CCNC(C)=O)c2c1	16.0%
CC(C)C(NC(=O)c1ccc(C(C)(C)C)cc1)C(=O)NCC(c1ccccc1)N(C)C (configuration not stated)	1.3%
COc1cc2c3c(c1)C1(C(=O)N3C(C)(C)C=C2C)C(C#N)=C(N)Oc2cc(O)ccc21 (configuration not stated)	13.1%
CCc1ccccc1-n1c(SCC(=O)N2CCCC2)nnc1-c1ccccn1	-1.0%
O=C(Nc1ccc(S(=O)(=O)N2CCOCC2)cc1)c1ccc([N+](=O)[O-])cc1Cl	-4.2%
Cc1cccc(NC(=S)NCCc2ccc(S(N)(=O)=O)cc2)c1C	?
O=C(COc1ccc2c3c(c(=O)oc2c1)CCC3)NC1CCCCC1	11.6%

# The results go on.
compound	VDR inhibitor
N#C/C(=C\c1cc(Cl)cc(Cl)c1O)C(=O)NC1CCCCC1	-2.3%
O=C(COC(=O)c1cccnc1Cl)Nc1cccc(S(=O)(=O)N2CCOCC2)c1	-6.6%
N#Cc1nc(-c2ccccc2F)oc1N1CCCC1	15.9%
COC(=O)c1ccc(CSc2nccn2C)cc1	-17.4%
O=[N+]([O-])c1ccc(CSc2ncnc3ccccc23)cc1	-13.2%
CSc1nccc(N/N=C/c2ccccc2)n1	2.0%
CCCCN(C)CCCNC(=O)c1ccc2nc(N3CCCCC3)sc2c1	-7.9%
CCOC(=O)N1CCN(Cc2ccccc2Cl)CC1	9.4%
COc1ccccc1/C=C/C(=O)Oc1cccc2cccnc12	9.3%
CC1Sc2ccc(S(=O)(=O)CCC(=O)Nc3ccccc3Cl)cc2NC1=O (configuration not stated)	-18.9%
O=C(C[C@@H]1C/C=C\CCCC(=O)OC[C@@H]2CCCN2C1=O)NCCO	-14.1%
Cc1cc(C)nc(NS(=O)(=O)c2ccc(NC(=O)c3nn(-c4ccccc4)ccc3=O)cc2)n1	-10.8%
C1=CCC(CN2CCN(C3CCCCCC3)CC2)CC1 (configuration not stated)	9.6%
CCC(=O)Nc1cccc(-c2nnc(-c3cccc(NC(=O)CC)c3)o2)c1	1.5%
COc1ccc(CCNC(=O)c2cc(S(=O)(=O)N3CCCC3)cn2C)cc1OC	0.3%
CCOc1ccc(-n2c(C)c(C(=O)OC)c3cc(O)ccc32)cc1	-10.1%
COc1ccc(CN(C)C(=O)c2[nH]c(C)c(C(C)=O)c2C)cc1F	-17.4%
COc1cccc(N2C(=O)C3CCCN3C2c2ccc(Cl)cc2)c1 (configuration not stated)	-1.4%
CCn1c(C)nnc1SCC(=O)Nc1ccccc1OC	4.3%
COc1ccc(-n2nnnc2-c2cn(C)nc2C(F)(F)F)cc1	-19.7%

# (continued)
compound	VDR inhibitor
Cc1noc(C)c1CSCC(=O)Nc1ccc(Br)cc1Cl	-10.5%
CCN1C[C@@H]2[C@@H]3C(=O)N(C)C(=O)[C@@H]3[C@](Cc3ccccc3)(C1=O)N2C(=O)c1ccc(Cl)cc1	-14.5%
Cc1ccc(CS(=O)(=O)CCC(=O)NCCc2ccccc2)cc1	?
Cc1cc(C)cc(N(CCC#N)C(=O)COC(=O)CCc2c[nH]c3ccccc23)c1	-6.1%
CCCCN(Cc1ccco1)C(=O)c1cc2c(=O)[nH]c3ccc(C)cc3c2s1	2.1%
Cn1c2c(c(O)c(-c3ccccc3)c1=O)C(=O)CC(C)(C)C2	-14.5%
CCOc1ccc(C2C(=O)N(C3CCCCCC3)CC(=O)N2Cc2ccc(C)cc2)cc1OC (configuration not stated)	6.8%
O=C(NC1CCC(O)CC1)c1cc(-c2ccc(Cl)cc2)nc2ccccc12 (configuration not stated)	-9.1%
CCOC(=O)c1c(N)n[nH]c1-c1ccc(OC)cc1	16.5%
CCc1cc(CC)c(/C=N/NC(N)=O)c(CC)c1/C=N/NC(N)=O	4.7%
CC1=C(C(=O)N(C)C)C(c2cccc(Cl)c2)NC(=O)N1 (configuration not stated)	8.6%
COc1ccc(N2C(=O)CSC2c2cccc(OC)c2OC)cc1 (configuration not stated)	-21.1%
COc1ccc(N2C(=NC(=O)c3ccccc3)SC3CS(=O)(=O)CC32)cc1 (configuration not stated)	15.7%
COc1ccc(C2C(C(=O)NCCN(C)C)c3cc(OC)c(OC)cc3C(=O)N2C)cc1OC (configuration not stated)	-11.8%
COc1ccccc1N1CCN(C(CNC(=O)C(=O)NCc2ccc(F)cc2)c2cccnc2)CC1 (configuration not stated)	11.6%
COc1cc(NC(=O)CSc2cc(C)c3cc(C)cc(C)c3n2)c(C(=O)O)cc1OC	-6.0%
CCOC(=O)CSc1nnc(CSc2nc3ccccc3s2)n1C	-15.0%
CCc1ccccc1NC(=O)c1cc(-c2ccco2)on1	-15.4%
c1ccc(-n2c(Sc3cnccn3)nnc2-c2cccs2)cc1	3.7%
CC(=O)NNC(=S)NCCc1ccccc1	-18.4%

# Following part:
compound	VDR inhibitor
Cc1ccc(/C=N\Nc2cn[nH]c(=O)c2Cl)cc1	11.5%
CCOc1ccc(-c2c(C(=O)N/N=C/c3ccsc3)nnn2-c2nonc2N)cc1	12.0%
CCN1CCN(c2ccc([N+](=O)[O-])cc2S(=O)(=O)N2CCOCC2)CC1	4.5%
CCOC(=O)Nc1ccc(Cc2ccncc2)cc1	2.1%
O=C1CSc2ccc(C(=O)N3CCN(c4ccccn4)CC3)cc2N1	-1.5%
CC(/C=C/c1ccco1)=N/NC(=O)C1COc2ccccc2O1 (configuration not stated)	-29.6%
CNS(=O)(=O)c1cn(CC(=O)N2CCN(c3cccc(Cl)c3)CC2)cc1S(=O)(=O)NC	13.6%
Cc1ccc(-c2nc(CS(=O)CC(=O)N3CCN(c4ccc(Cl)cc4)CC3)c(C)o2)cc1 (configuration not stated)	3.1%
CCCN1C2CCCC1CC(NC(=S)Nc1cccc(C)c1C)C2 (configuration not stated)	-12.1%
CNC(=O)c1ccc(NC(=O)Cc2ccc(S(=O)(=O)N3CCOCC3)s2)cc1	-5.5%
O=C(NC1CCCC1)C1CCC(=O)N1CCc1ccccc1 (configuration not stated)	1.6%
Cn1cc([N+](=O)[O-])c(C(=O)Nc2ccc(C3CCCCC3)cc2)n1	-5.9%
N#C/C(=C(/O)COC(=O)COc1cccc(Br)c1)c1nc2ccccc2[nH]1	-8.6%
COC(=O)c1ccc(COc2ccc(C(=O)c3ccccc3)cc2)o1	-10.2%
Cc1ccc(/C=C(\C#N)C(=O)Nc2cccc(Cl)c2)o1	-0.6%
O=C(NNC(=O)c1cccnc1SCc1cccc([N+](=O)[O-])c1)c1ccc(F)cc1	16.8%
C#CCOCCOCCOCCNc1nc(N2CCN(C(=O)[C@H]([C@@H](C)CC)n3cc([C@@H](N)CC(C)C)nn3)CC2)nc(N2CCN(C(=O)[C@H](CCCCN)n3cc([C@@H](N)CO)nn3)CC2)n1	-23.3%
Cc1c(Cl)c([N+](=O)[O-])nn1CCCC(=O)Nc1cccc(Cl)c1	2.2%
COc1cc(Cl)c(CNC[C@H]2O[C@@H](n3ccc(=O)[nH]c3=O)[C@H](O)[C@@H]2O)c(Cl)c1O	-14.0%
Cc1cc(/C=N/NC(=O)C(=O)NCc2ccccn2)c(C)n1-c1cccc(Br)c1	10.6%

# Next part.
compound	VDR inhibitor
Cc1ccccc1N=Cc1cc2c(cc1[N+](=O)[O-])OCO2	3.4%
COc1ccc(NC(=O)CSc2nc3c(c(=O)n2-c2ccc(F)cc2)SCC3)cc1	-13.3%
CC(C)(C)c1ccc(C(=O)N2CCN(c3nc4ccccc4o3)CC2)cc1	-8.7%
COc1ccc(NC(=O)Cn2c(=O)n(Cc3ccco3)c(=O)c3ccccc32)cc1	-1.5%
COc1cc(NC(=O)Cn2nc(C(F)(F)F)c3c2CCCC3)cc(OC)c1OC	-5.2%&-6.7%
O=C(CCSCc1ccccc1Cl)NCc1cccs1	-17.7%
COc1ccccc1N1CCN(S(=O)(=O)c2ccc3c(c2)NC(=O)C(C)C(=O)N3)CC1 (configuration not stated)	-3.2%
C=CCn1c(=O)c2ccccc2n2c(SCC(=O)Nc3sc(C(=O)N(CC)CC)c(C)c3C(=O)OCC)nnc12	-14.6%
CCOc1ccc(=O)n(-c2ccccc2)n1	-3.2%
O=C(COC(=O)c1ccc2c(c1)OCO2)Nc1ccccc1F	-0.9%
Cc1ccc(C2=NC3(CCCC3)N=C2SCC(=O)Nc2ccc3c(c2)OCCO3)cc1	?
Cc1cc(C)c(/C=C/c2onc(C)c2S(=O)(=O)N2CCC(C(=O)Nc3cccc(C)c3C)CC2)c(C)c1	4.8%
Fc1cccc(NC(=S)NCc2ccc(Cl)cc2)c1	-4.7%
CN(CC(=O)Nc1ccc(F)cc1)C(=O)COC(=O)CNC(=O)c1sc2ccccc2c1Cl	4.0%
Cc1cc2nnc(SCC(=O)N3C(C)CCCC3C)n2c(N)n1 (configuration not stated)	7.9%
CN(C)S(=O)(=O)c1ccc(C(=O)N(c2ccccn2)c2ccccn2)cc1	?
O=C(NCCc1ccccc1)C(=O)NCC1OCCN1S(=O)(=O)c1ccccc1 (configuration not stated)	8.9%
COc1ccccc1N=c1scc(-c2ccc(S(=O)(=O)N3CCCC3)cc2)n1C	-1.1%
CCCn1nc(Oc2nc(NCC)nc(NC(C)C)n2)ccc1=O	12.1%
CN1CCN(S(=O)(=O)c2ccc(N3CCN(C(=O)c4ccccc4)CC3)nc2)CC1	-0.1%
